gsp antag – antagonists of gsp mutant (McCune-Albright syndrome). gsp-mutant cells, cAMP HTRF, 30 min; control for the full effect not named in the record. Potency, µM (series often up to 76.9 µM), for inactives: top-dose activity change, negative = inhibition, most hits filed as inhibitors. 340,000 compounds, 0.4% hits. AID 624288; active = falling curve of any shape with a large fitted effect; inconclusive = falling curve, mostly with a smaller effect; inactive = flat or rising curve; cell line not stated here;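 also: intracellular cAMP measured with PDE inhibitor Ro 20-1724 present during compound exposure; potency is read from the fitted curve at half-maximal effect; % is scaled to controls: 0 for no effect and ±100 for the full control effect; nearly all actives have a fitted effect of over 65% in size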
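G418-selected cells were plated in DMEM/10% FBS for 16-24 h at 37C, then treated with compounds plus the PDE inhibitor […] (300 uM solution added) for 30 min at 37C. Intracellular cAMP was measured by HTRF after 30 min lysis at room temperature.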
TRPML1 agonist – activates the human TRPML1 channel. TRPML1-expressing cells, Ca2+ dye fluorescence, FDSS; host cell line not named in the record; reference of the full effect not given here. activation, % (test concentration not listed). 410,000 compounds, 0.12% hits. AID 624414; in the data active = activation above about 50%; inconclusive = about 30% to 50%; inactive = below about 30%; also: 0% is about no effect; the text of the record puts the active cut at 80%
Target sequence (Q9GZU1 whole entry, looked up): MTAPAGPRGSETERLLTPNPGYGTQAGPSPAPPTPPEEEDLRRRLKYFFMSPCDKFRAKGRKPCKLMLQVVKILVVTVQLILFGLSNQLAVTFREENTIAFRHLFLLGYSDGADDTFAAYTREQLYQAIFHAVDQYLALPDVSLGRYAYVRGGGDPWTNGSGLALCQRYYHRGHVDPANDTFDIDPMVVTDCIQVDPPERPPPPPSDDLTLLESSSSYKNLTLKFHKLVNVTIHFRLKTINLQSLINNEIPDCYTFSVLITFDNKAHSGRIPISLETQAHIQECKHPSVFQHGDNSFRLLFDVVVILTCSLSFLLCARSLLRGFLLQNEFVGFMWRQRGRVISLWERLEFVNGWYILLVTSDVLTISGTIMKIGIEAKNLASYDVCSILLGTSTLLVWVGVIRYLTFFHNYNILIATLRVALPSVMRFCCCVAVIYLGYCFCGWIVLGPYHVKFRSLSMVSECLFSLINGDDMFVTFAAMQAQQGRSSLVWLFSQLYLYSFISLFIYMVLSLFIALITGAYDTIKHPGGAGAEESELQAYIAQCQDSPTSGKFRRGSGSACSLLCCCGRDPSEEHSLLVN
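Tetracycline-induced TRPML1-DL cells are seeded and incubated overnight before loading with a no-wash Ca2+ dye and quencher. Agonist activity is taken from the 110 s fluorescence read following compound pin-transfer on an FDSS, before EC80 54-4 challenge.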
ClpP mod – qHTS Assay for Activators of ClpP; Potency, µM (titrated, usually from 57.5 µM), without a hit: at the highest dose activity change, negative = active; 340,000 compounds, 1.9% hits; purified B. subtilis ClpP, FRET peptide cleavage, 20 min; active = well fitted falling curve with a large enough effect; inconclusive = small, poorly fitted or top-dose-only effect; inactive = no such curve, though single readings can be large or run the other way; also: potency is read from the fitted curve at half-maximal effect; the source files actives as falling curves though it sought activators and does not explain the sign; nearly all actives have a fitted effect of over 65% in size; many hits overshoot -100%
Target sequence (P80244 whole entry, looked up): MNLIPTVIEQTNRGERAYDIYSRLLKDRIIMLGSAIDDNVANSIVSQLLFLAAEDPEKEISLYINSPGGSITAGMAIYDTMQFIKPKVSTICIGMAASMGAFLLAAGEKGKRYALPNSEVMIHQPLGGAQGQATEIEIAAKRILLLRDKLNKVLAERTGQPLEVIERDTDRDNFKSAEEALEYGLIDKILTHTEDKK
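Purified B. subtilis ClpP, 10 microg/mL final in Tris/HCl pH8 with KCl, BSA, glycerol and Tween-20, cleaved an Abz/nitrotyrosine-quenched decapeptide. Fluorescence (ex 320, em 430) was read at 0 and 20 min at room temperature. Delta was normalized to 5.8 microM ADEP and DMSO/no-enzyme controls.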
gsp ag – activates gsp, the McCune-Albright syndrome mutation | 340,000 compounds, 0.13% hits | Potency, µM (top dose mostly 76.9 µM), without a hit: top-dose activation (cAMP increase), hits mostly activators | gsp mutant cells, cAMP HTRF, 30 min; control for the full effect not named in the record; active = well fitted activation curve with a large enough effect; inconclusive = small, poorly fitted or top-dose-only effect, or another doubt; inactive = no such curve, though single readings can be large or run the other way; cell line not stated here;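 also: phosphodiesterase inhibitor Ro 20-1724 added with compounds to block cAMP breakdown; potency is read from the fitted curve at half-maximal effect; nearly all actives have a fitted effect of over 60% in size; about a fifth of the inactives were tested at one dose only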
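Cells in DMEM/10% FBS with G418 were pretreated with compounds in DMSO plus […] (300 uM stock) for 30 min at 37C. cAMP was measured by HTRF (cAMP-d2 plus anti-cAMP antibody-K) after 30 min at room temperature.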
Menin-MLL FL inh – menin-MLL binding inhibition, fluorescein peptide. AID 1766. FP activity change, % at 61.4 µM. Fluorescence polarization, fluorescein-MLL peptide displacement from menin. 290,000 tested, under 10 active; inconclusive = falling polarisation curve, or a change in total fluorescence; inactive = total fluorescence flat and polarisation flat or rising; no compound was filed as active; the % refers to the polarisation; negative = inhibition;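 also: % of control where 0% means no effect; inhibitors lower the polarisation; unlabelled MLL peptide was the positive control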
TRPML1 inh – human mucolipin-1 channel inhibition | Q9GZU1 | TRPML1-inducible cells, Ca2+ dye fluorescence, FDSS; active compounds read low; inhibition of EC80 agonist-evoked calcium signal | activity change, negative = inhibition, % (no concentration beside the values) | 390,000 compounds, 0.02% hits | AID 624415; in the data active means activity change below about -50%; inconclusive means about -30% to -50%; inactive means above about -30%;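 also: stimulus is agonist 54-4 at its EC80 concentration; % is scaled to controls: 0 for no effect and ±100 for the full control effect; compound concentration not given in the record; the text of the record puts the active cut at -80%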
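Calcium fluorescence in TRPML1-DL cells induced overnight with Tet: a 110 s read after compound pin addition, then a 110 s antagonist read after challenge with 54-4 at 4 uM final (EC80).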
Active calls of the source: *; ? = inconclusive; · = not tested or not shown; & = joins results of further samples; [ ] = dose if it differs, or a comment.

The opening 2 entries, ahead of the listing:
structure	Menin-MLL FL inh	TRPML1 agonist	ClpP mod	TRPML1 inh	gsp ag	gsp antag
COc1ccccc1CNC(=O)c1ccc(-c2nc(CS(=O)(=O)c3ccc(C)cc3)c(C)o2)cc1	·	1.5	3.9%	15.9	·	·
Cc1ccc(NC(=O)c2cc(=O)c3ccccc3o2)cc1	2.7	-0.6	3.4%	11.3	19.5%	2.5%

The whole of this part, repeating the preview:
structure	Menin-MLL FL inh	TRPML1 agonist	ClpP mod	TRPML1 inh	gsp ag	gsp antag
COc1ccccc1CNC(=O)c1ccc(-c2nc(CS(=O)(=O)c3ccc(C)cc3)c(C)o2)cc1	·	1.5	3.9%	15.9	·	·
Cc1ccc(NC(=O)c2cc(=O)c3ccccc3o2)cc1	2.7	-0.6	3.4%	11.3	19.5%	2.5%
COC(=O)Nc1sc2c(c1C(N)=O)CCC(C)C2 (stereo not drawn)	-1.0	-1.2	-1.3%	2.7	7.0%[15.4 µM]	-7.2%
CC(=O)Oc1ccc(N2C(=O)[C@@H]3[C@H](C2=O)[C@H]2c4ccccc4C=NN2[C@@H]3C(C)=O)cc1	-3.8	0.3	-5.0%	9.9	-0.6%[15.4 µM]	0.8%
COc1ccc(S(=O)(=O)NC2CCCCCC2)cc1C(N)=O	·	-0.2	2.2%	-6.5	8.4%	10.6%
O=C(NCCO)/C(=C\c1cccs1)NC(=O)c1cccs1	0.3	-0.3	-1.8%	3.9	-26.4%	-2.2%
CCN1CCN(c2ccc(Cl)cc2NC(=O)c2ccc(-n3nc(C)cc3C)cc2)CC1	·	0.8	-3.4%	73.0	-20.5%	-4.0%
C/C(=N/Oc1nc(C)cc(C)n1)c1ccc(F)cc1	1.8	-0.5	-2.4%	-7.6	-14.2%	8.1%
O=C(NCC1CCOCC1)c1cccc2c(-c3cccnc3)coc12	·	1.3	-16.2%	6.5	·	·
CCn1cc(C(=O)N2CCN(c3ccc(OC)cc3)CC2)c2cc(OC)c(OC)cc2c1=O	-0.5	-0.6&-0.3	-1.4%&-6.5%	13.3&12.3	8.5%	11.0%
O=C(CCCOc1ccc(Cl)cc1Cl)N1CCN(c2ccccn2)CC1	2.9	2.4	?	35.4	20.9%	-24.9%
Cn1c2[n+](c3ccc(Cl)cc3c1=O)Cc1ccccc1-2	1.1	-0.6	-0.9%	1.0	3.9%[15.4 µM]	-10.1%
O=C1C=CN(Cc2ccccc2)C(c2ccccc2)C1 (stereo not drawn)	·	-0.4	-12.6%	-4.9	-15.5%	0.9%
CCc1ccc(OCC(=O)NNC(=O)Cc2ccc(S(=O)(=O)N3CCOCC3)s2)cc1	·	1.6	-2.2%	55.5	-2.6%	-18.7%
CCc1ccccc1NC(=O)C1CCCN(c2nnc(-n3c(C)ccc3C)s2)C1 (stereo not drawn)	·	0.1	-6.5%	14.5	·	·
O=S(=O)(c1ccc(Oc2ccc(-c3nnco3)cc2)nc1)N1CCC(Cc2ccccc2)CC1	8.0	1.6	-1.0%	3.7	-19.2%	1.2%
CCCS(=O)(=O)N1CCC(C(=O)NCCCN2CCCC2=O)CC1	-4.2	-0.1	-0.4%	70.2	-11.8%	-2.6%
CS(=O)(=O)N1CCC(c2noc(-c3ccc(C(F)(F)F)cc3)n2)CC1	3.7	-0.6	1.3%	4.3	-3.0%	9.6%
CCOc1ccc2nc(SCC(=O)N(C)C)[nH]c2c1	3.9	-0.7	0.2%	-8.5	5.1%	2.4%
CC1CCCCC12NC(=O)N(CC(=O)Nc1sccc1C(N)=O)C2=O (stereo not drawn)	·	-0.3	-3.3%	8.3	-15.2%	9.8%
O=C(O)CCC(=O)NNC(=O)c1cccs1	1.4	-0.6	·	-12.2	-2.8%[15.4 µM]	-2.9%
O=C(Nc1ccc(N2CCN(c3ccc(O)cc3)CC2)cc1)Oc1ccccc1	-1.8	-0.6	-1.7%	11.9	28.5%	0.6%
O=C(Nc1ccc([N+](=O)[O-])cc1)N1CCN(C(=O)C2CCCO2)CC1 (stereo not drawn)	·	-0.1	-2.0%	2.5	21.0%	3.0%
Oc1ccc(/C=C/c2ccc3cccc(O)c3n2)cc1Br	?	12.3	0.0%	-20.6	?	10.0%
Cc1nnc(SCC(=O)NCc2ccc(F)cc2)[nH]c1=O	-5.4	-0.2	-0.9%	3.2	?	6.2%
CCOc1ccc(NC(=O)CN(C)c2ccc(S(=O)(=O)N(C(C)C)C(C)C)cn2)cc1OCC	5.8	0.8	-4.1%	8.9	-4.9%	0.4%
O=C(NN1CCOCC1)c1ccc(F)cc1	-1.8	-0.3	1.2%	0.3	-4.1%	18.3%
Cc1cccc2c1OCC/C2=N\NC(=O)COc1ccccc1	-0.8	2.5	-1.3%	-1.5	1.6%	-22.8%
CC(C)(C)C(=O)[C@H]1[C@H](c2ccccc2)[C@@]2(N=C(c3ccccc3)OC2=O)C2c3ccccc3C=NN21 (stereo partly drawn)	1.2	1.0	-1.6%	14.6	-0.5%	-14.2%
COC(=O)c1sc2cccc(F)c2c1S(=O)(=O)Nc1ccc(N(C)C)cc1	·	1.1	1.2%	-2.5	·	·
COc1ccc(NC(=O)CN(C)S(=O)(=O)c2ccccc2)cc1	4.1	-0.7	-0.5%	3.5	-0.1%	-1.5%
COc1ccc(/C=C/c2n[nH]c(=O)c(C#N)c2C)cc1	-5.1	0.1	·	-6.4	16.7%[15.4 µM]	-32.6%
COc1cccc(OCCOc2ccccc2[N+](=O)[O-])c1	·	2.3	-0.7%	2.9	1.6%	-16.8%
COc1ccccc1CCNC(=O)c1cccc(NC(=O)CC2SC(N3CCCCC3)=NC2=O)c1 (stereo not drawn)	·	6.1	0.5%	14.2	-29.1%	-26.6%
OCc1cn(-c2ccccc2)nc1-c1ccco1	8.6	0.1	?	4.5	15.8%	-1.3%
CC(C)(C)NC(=O)C(c1ccncc1)N(C(=O)Cn1nnc(-c2cccs2)n1)C1CCCCC1 (stereo not drawn)	-1.8	-0.3	1.1%	-11.6	12.3%	-13.7%
Cc1ccc(/C=N/Nc2ncc(Cl)cc2Cl)s1	0.7	0.2	-4.1%	0.6	1.7%	-13.6%
COc1cccc(-c2cn3ncsc3n2)c1	·	-0.5	-2.6%	-16.2	·	·
CCC(Sc1nc2ccccc2s1)C(=O)Nc1cc(C)on1 (stereo not drawn)	0.3	-0.1	-0.3%	8.5	0.0%	?
COc1cccc(/C=C2/SC(=S)N(CC(=O)NC3C=CS(=O)(=O)C3)C2=O)c1 (stereo not drawn)	-1.6	-0.5	-2.4%	-5.7	-11.9%	-21.5%
O=C1CN(C(=O)COC(=O)CCSc2ccccc2Cl)c2ccccc2N1	10.8	-0.5	-1.0%	-12.9	-1.6%	10.3%
CN(C(=O)COC(=O)c1cn(-c2ccccc2)nc1-c1ccccc1)C1CCS(=O)(=O)C1 (stereo not drawn)	-0.3	-0.1	1.7%	19.2	?	?
O=C(C1CCCCC1)N1C[C@@H](O)[C@H](n2cc(C3CC3)nn2)C[C@@H]1c1ccccc1	·	-0.8	1.8%	6.7	14.8%	·
CC(C)CN(C(=O)CCc1ccccc1)c1c(N)n(CC(C)C)c(=O)[nH]c1=O	1.8	0.5	-1.2%	5.2	-18.8%	-1.7%
COc1ccc(CCNC(=O)CC(NC(=O)c2ccccc2Cl)c2ccccc2)cc1 (stereo not drawn)	0.4	-1.2	-1.6%	-15.0	-3.6%	7.8%
O=C(c1ccc(N2CCN(C(=O)c3ccc(F)c(F)c3)CC2)cc1)c1cccc(F)c1	·	0.4	-7.3%	20.5	23.3%	-18.4%
COc1ccc2c(c1)CCc1c(C(=O)N3CCc4ccccc4C3)noc1-2	6.4	2.3	-4.8%	54.6	14.0%	?
CCCCn1nc2cc(C(=O)NCCc3cccs3)ccc2c1OCC	1.4	-0.5	4.5%	0.3	·	4.0%
O=C(O)c1cc([N+](=O)[O-])c(NCCC2=CCCCC2)c([N+](=O)[O-])c1	3.3	1.0	0.2%	-27.2	-39.6%[inhibitor]	-5.5%
N#CC(C#N)=C(Nc1ccc(F)cc1)SCc1cccc(Br)c1	-3.6	2.0	-25.9%	19.7	16.1%	?
CC(NC(=S)Nc1ccc(Cl)cc1Cl)C(c1cccs1)N1CCCC1 (stereo not drawn)	4.7	24.0	-0.7%	-5.8	1.5%	-0.1%
S=c1[nH]nc(Cc2n[nH]c(=S)n2-c2ccccc2)n1-c1ccccc1	-3.0	0.2	-1.7%	37.7	-17.9%	7.0%
O=C(CCCN1C(=O)/C(=C/c2cccs2)SC1=S)NNC(=O)c1cccnc1	-0.8	-0.1	-2.9%	-8.1	24.3%	-5.2%
C#CCOCCOCCOCCNc1nc(N2CCN(C(=O)Cn3cc(CCCN=C(N)N)nn3)CC2)nc(N2CCN(C(=O)[C@H]([C@@H](C)CC)n3cc(CCCCN)nn3)CC2)n1	·	-0.8	-2.1%	9.3	·	-3.7%
COc1ccc(N2C(=O)CCC(C(=O)N3CCN(c4ccccn4)CC3)C2c2ccc(F)cc2)cc1 (stereo not drawn)	-1.4	-0.3	·	10.3	-1.6%	-6.7%
Cc1cccc(/C(N)=N/OC(=O)CCC2CCCCC2)c1	7.1	-0.6	1.0%	11.6	-5.6%[15.4 µM]	-1.9%
CC(Sc1ccc(Cl)cc1)C(=O)NCC1CCCO1 (stereo not drawn)	5.1	-0.8	1.2%	8.2	1.9%	15.3%
CC(C)CN(CCNC(=O)CN1C(=O)CSc2ccc(S(=O)(=O)N3CCOCC3)cc21)CC(C)C	-2.3	0.1&-0.7	-0.9%&0.4%	1.7&-12.6	18.5%	-3.1%
O=C(O)COc1c(-c2ccco2)oc2ccccc2c1=O	14.5	-0.3	·	-1.0	-1.8%	-7.0%
Cc1ccc(S(=O)(=O)N2CCN(C(=O)c3ccc(N4CCC(C)CC4)c([N+](=O)[O-])c3)CC2)cc1	·	1.1	-0.9%	24.8	31.5%	-7.7%

Continuation:
structure	Menin-MLL FL inh	TRPML1 agonist	ClpP mod	TRPML1 inh	gsp ag	gsp antag
CCn1c(O)c2ccc(C(=O)N=NC(=O)c3cccnc3)cc2c1O	3.2	0.6	0.9%	4.3	2.7%	10.4%
CCOC(=O)N1CCN(C(=O)c2cnn3c(C)c(Cc4ccc(C)cc4)c(C)nc23)CC1	-1.0	-0.1	?	4.9	-36.2%[inhibitor]	-7.8%
CCCNC(=O)CSc1nc(-c2cccs2)cc(C(F)(F)F)n1	2.1	2.7	-28.3%	5.6	19.2%	-12.5%
O=C(Nc1cccnc1)c1ccc(CSc2ccccc2)cc1	-2.2	0.0	·	-6.9	-2.4%[15.4 µM]	5.6%
